A1 inh = inhibitors of the anti-apoptotic protein A1, read as caspase activation. MEF A1-2A-BIM cells, Caspase-Glo 3/7 luminescence, 3 h; percent of clofoctol response, vehicle zero. caspase activation, % (no concentration beside the values). actives 0.066% (n = 330,000). AID 2462;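 active = over half of replicate activation scores above 10%, or exactly half above 10 with the replicate mean above 10; inconclusive = replicate mean below 10 yet half the replicates above 10; inactive = over half of replicates below 10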;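 note: wells of about 30 µL received 50 nL stock; many hits fall short of the cut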
Vif A3G = inhibitors of Vif binding to APOBEC3G peptide, primary screen, biochemical, TR-FRET, GST-Vif 1-94, biotin-A3G peptide, dose response retest (AID 1117319). TR-FRET GST-Vif / biotin-A3G peptide binding; higher % means a stronger effect; test concentration not given here; strong numbers were not always called active. one-dose inhibition, %; IC50 in µM for titrated hits. actives 0.57% (n = 260,000);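 active = above the screen mean plus three standard deviations and confirmed in dose response; inconclusive = results disagree or hit not tested in dose response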;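 note: Vif residues 1-94 fused to GST binding biotinylated APOBEC3G peptide 110-148; 0% = full assay without inhibitor and 100% = GST in place of GST-Vif; retest series ran down from 100 µM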
RanGTP-Imp inh = inhibitors of RanGTP-importin-beta interaction, primary screen, biochemical, FRET, CFP-Ran, YFP-importin-beta, homogeneous; cell-free CFP-Ran/YFP-importin-beta FRET ratio; inhibition, % (no concentration beside the values); actives 1.1% (n = 300,000);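 active = most replicates above 15%; inconclusive = exactly half above 15%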;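 note: 0% = DMSO wells and 100% = Ran loaded with GDP instead of GTP; wells of about 40 µL received 100 nL stock; the first replicate is given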
Calb FLC = affects C. albicans growth with fluconazole; C. albicans CaCi-2 (fluconazole-resistant clinical isolate) + fluconazole, Alamar Blue growth, 48 h; growth inhibition, % (test concentration not listed); actives 0.57% (n = 300,000); AID 1979;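 active = most replicates above 75%; inconclusive = exactly half above 75%; inactive = most below 75%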;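 note: all wells also contain fluconazole at 8 µg/ml as a sub-toxic cotreatment; 0% = median of DMSO wells and 100% = median of geldanamycin control wells; wells of about 8 µL received 7.5 nL stock; the first replicate is given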
T cruzi repl = blocks replication of Trypanosoma cruzi; inhibition, % (concentration not given with the values); T. cruzi beta-gal in NIH3T3, luminescence, 90 h; actives 1.4% (n = 300,000); AID 1885;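 active = mean inhibition across valid replicates above about 55%, limit read from the data; inconclusive = mean below that limit but half or more replicates reach it; inactive = mean below it, under half of replicates reach it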;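 note: signal also drops with host cell toxicity which is not excluded here; 0% = plate median of DMSO wells and 100% = zero luminescence signal; higher percent means less beta-gal luminescence so fewer parasites; stock transfer was 50 nL into about 50 µL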
LANA-H2A inh = blocks KSHV LANA binding to histone H2A/H2B. cell-free LANA-H2A/H2B peptide, fluorescence polarization. inhibition, % (no concentration beside the values). actives 0.6% (n = 320,000); in the data active = inhibition mostly above about 10%, no sharp cut-off; inactive = mostly below about 6.7%;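 note: stock transfer was 7.5 nL into about 10 µL; 0% = median of vehicle wells and 100% = median of positive control wells; one replicate is shown; the record names a cut of 25% in any replicate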
Beta apoptosis = blocks beta cell apoptosis; actives 0.8% (n = 300,000); INS-1E cytokine-induced death, ATP luminescence, 48 h; percent of positive-control rescue, neutral wells zero; protection from apoptosis, % (no concentration beside the values); AID 435005;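 active = all replicates at 75% or more, or half of them and the mean; inconclusive = half reach 75% but not the mean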;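 note: 0% = cytokine-treated negative control wells and 100% = positive control rescue; higher means more ATP so stronger rescue from cytokine killing; wells of about 40 µL received 100 nL stock; the first replicate is given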
MLL AF4-AF9 inh = inhibitors of human MLL-AF4/AF9 interaction; P42568; AlphaScreen, biotin-AF4 peptide binding to FLAG-AF9; inhibition, % at 10 µM; actives 0.47% (n = 350,000); AID 651704;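 active = every replicate reaching a set inhibition limit, whatever the replicate mean, cut at about 25% in these data; inconclusive = mean inhibition reaches that limit but some replicates miss it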;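 note: 0% = plate neutral control median and 100% = total signal loss; the record names both 10 and 1 µM as test concentration; the first replicate is given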
Target sequence (P42568 whole entry, looked up): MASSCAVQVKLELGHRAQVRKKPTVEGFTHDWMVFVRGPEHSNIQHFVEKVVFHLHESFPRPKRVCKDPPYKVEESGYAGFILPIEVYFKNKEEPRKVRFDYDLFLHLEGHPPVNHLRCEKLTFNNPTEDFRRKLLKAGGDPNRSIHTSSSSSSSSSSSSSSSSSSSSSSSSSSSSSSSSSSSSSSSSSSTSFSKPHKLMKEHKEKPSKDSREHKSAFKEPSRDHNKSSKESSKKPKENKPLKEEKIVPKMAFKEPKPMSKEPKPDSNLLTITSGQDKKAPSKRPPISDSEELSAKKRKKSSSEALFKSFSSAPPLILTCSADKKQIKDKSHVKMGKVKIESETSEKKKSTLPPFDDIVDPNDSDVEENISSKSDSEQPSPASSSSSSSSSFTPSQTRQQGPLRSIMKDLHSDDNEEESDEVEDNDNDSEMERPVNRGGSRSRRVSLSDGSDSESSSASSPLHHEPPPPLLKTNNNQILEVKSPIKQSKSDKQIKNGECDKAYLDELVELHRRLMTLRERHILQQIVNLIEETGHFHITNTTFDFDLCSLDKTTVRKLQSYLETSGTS
* hit, by the source's call; & = joins results of further samples.

How did O=C1OC(c2ccccc2)/C(=C(/O)c2ccccc2)C1=O (stereo not drawn) do in these assays?
A1 inh: -0.4; Vif A3G: inconclusive; RanGTP-Imp inh: -3.7; Calb FLC: -9; T cruzi repl: -11; LANA-H2A inh: -0.6; Beta apoptosis: 0

What do the screens show for `O=C(CSc1nc2ccc([N+](=O)[O-])cc2[nH]1)NC1CCCC1`?
A1 inh: 1.8; RanGTP-Imp inh: -0.3; Calb FLC: -2; T cruzi repl: -4; LANA-H2A inh: -0.9

How did O=C(N/N=C/C1CC=CCC1)c1cc(Br)ccc1O (stereo not drawn) do in these assays?
A1 inh: -1.7; Vif A3G: 17%; RanGTP-Imp inh: 4.6; Calb FLC: 9; T cruzi repl: -9; LANA-H2A inh: 11; Beta apoptosis: 0; MLL AF4-AF9 inh: -0.8

What do the screens show for `COc1ccc(C(=O)COC(=O)/C=C/c2ccccc2)cc1`?
A1 inh: 0.6; Vif A3G: 1%; RanGTP-Imp inh: inconclusive; Calb FLC: 4; T cruzi repl: -16; LANA-H2A inh: 5.8; Beta apoptosis: -8; MLL AF4-AF9 inh: -1.3

How did CCc1ccccc1NC(=S)N=Nc1c(O)n(C)c2ccc(S(=O)(=O)N3CCOCC3)cc12 do in these assays?
A1 inh: -0.8; Vif A3G: 15%; RanGTP-Imp inh: -1.8; Calb FLC: 69; T cruzi repl: 41; LANA-H2A inh: 3.2

What do the screens show for `COc1ccc(CCNS(=O)(=O)c2c(C)nc3scc(C)n3c2=O)cc1OC`?
A1 inh: -0.2; Vif A3G: -5%; RanGTP-Imp inh: 7.4; Calb FLC: 4; T cruzi repl: -3; LANA-H2A inh: -1.8; Beta apoptosis: -1; MLL AF4-AF9 inh: 1.7

Results for CCC(=O)N1CCN=C1SCc1ccc(Cl)cc1 ?
A1 inh: 0.9; Vif A3G: -7%; RanGTP-Imp inh: -2.9; Calb FLC: -5; T cruzi repl: 6; LANA-H2A inh: 4.7; Beta apoptosis: -3

What do the screens show for `CC(NC(=O)c1cc(-c2ccc3c(c2)OCO3)nc2ccccc12)C(C)(C)C` (stereo not drawn)?
A1 inh: -0.7; Vif A3G: -3%; RanGTP-Imp inh: -2.6; Calb FLC: -19; T cruzi repl: 14; LANA-H2A inh: 1.5; Beta apoptosis: 0

What do the screens show for `CN(C(=O)c1cc2c(s1)-c1ccccc1S(=O)(=O)C2)c1ccccc1F`?
A1 inh: 0.5; RanGTP-Imp inh: -1.2; Calb FLC: -4; T cruzi repl: 19; LANA-H2A inh: 4.9; Beta apoptosis: 4; MLL AF4-AF9 inh: 3.3

What do the screens show for `NC(=O)C[n+]1cccc(C(N)=O)c1`?
A1 inh: 0.9; Vif A3G: 2%; RanGTP-Imp inh: -1.2; Calb FLC: 12; T cruzi repl: -13; LANA-H2A inh: -3.4; Beta apoptosis: -9; MLL AF4-AF9 inh: -5.7

How did Cc1ccc(S(=O)(=O)N2CCCCC2)cc1NC(=O)CSc1nccn1C do in these assays?
A1 inh: 0.3; Vif A3G: 8%; RanGTP-Imp inh: 4.3; Calb FLC: 0; T cruzi repl: 11; LANA-H2A inh: -2.3; Beta apoptosis: -2; MLL AF4-AF9 inh: 1.7

Results for CCOC(=O)C1=C(C)Nc2ccccc2N=C1NC(=O)Cc1ccc(Cl)c(Cl)c1 ?
A1 inh: 0.5; Vif A3G: 1%; RanGTP-Imp inh: -0.9; Calb FLC: -5; T cruzi repl: -23; LANA-H2A inh: 1.0; Beta apoptosis: 5; MLL AF4-AF9 inh: -1.0

How did O=C(O)c1ccccc1NC(=O)C(c1ccccc1)c1ccccc1 do in these assays?
A1 inh: 0.3; RanGTP-Imp inh: 2.2; Calb FLC: 0; T cruzi repl: 8; LANA-H2A inh: 0.4; MLL AF4-AF9 inh: -2.1

Results for COc1ccc(NC2CC(=O)N(c3cccc(C)c3)C2=O)cc1 (stereo not drawn) ?
A1 inh: -0.2; Vif A3G: 10%; RanGTP-Imp inh: 2.1; Calb FLC: 2; T cruzi repl: -27; LANA-H2A inh: 2.8; Beta apoptosis: 7

How did Cc1ccc(-c2ccc(SCC(=O)Nc3cc(C)on3)nn2)cc1 do in these assays?
A1 inh: -1.8; Vif A3G: -25%; RanGTP-Imp inh: -1.5; Calb FLC: -10; T cruzi repl: 4; LANA-H2A inh: -2.2; Beta apoptosis: -1; MLL AF4-AF9 inh: 2.0

What do the screens show for `O=C(CN1C(=O)C2(OCCO2)c2ccccc21)c1ccc(Br)cc1`?
A1 inh: 2.4; Vif A3G: -8%; RanGTP-Imp inh: 3.7; Calb FLC: -16; T cruzi repl: -1; LANA-H2A inh: 3.4; Beta apoptosis: 0; MLL AF4-AF9 inh: 15

Results for COc1ccc(CN2CCN(c3ccccn3)CC2)c(OC)c1C ?
A1 inh: 0.7&0.6; RanGTP-Imp inh: 0.5&-1.5; Calb FLC: -30&2; T cruzi repl: 6&1; LANA-H2A inh: -0.3&-4.2; Beta apoptosis: 1&-1; MLL AF4-AF9 inh: -11&-34

What do the screens show for `CCSc1nnc(NS(=O)(=O)c2ccc(OC)cc2)s1`?
A1 inh: 1.0; Vif A3G: -7%; RanGTP-Imp inh: inconclusive; Calb FLC: 6; T cruzi repl: 16; LANA-H2A inh: -1.3; Beta apoptosis: 2; MLL AF4-AF9 inh: -18

How did CCCC(=O)C1=C(N(C)c2ccccc2)CC(C)(C)CC1=O do in these assays?
A1 inh: 0.8; Vif A3G: 67%; RanGTP-Imp inh: -1.2; Calb FLC: -10; T cruzi repl: -2; LANA-H2A inh: 9.4; MLL AF4-AF9 inh: 1.0

How did CCN(C(=O)CSc1nnc2nc(C)cc(C)n12)c1ccccc1 do in these assays?
A1 inh: 1.4; Vif A3G: 0%; RanGTP-Imp inh: -2.2; Calb FLC: 8; T cruzi repl: -5; LANA-H2A inh: 2.9; Beta apoptosis: -6; MLL AF4-AF9 inh: -0.8

What do the screens show for `CCCCn1nc(C(=O)Nc2cccc(C(=O)NC3CC3)c2)c2ccccc2c1=O`?
A1 inh: -0.6; LANA-H2A inh: 4.8; Beta apoptosis: -9; MLL AF4-AF9 inh: -0.3

How did CCOCC(=O)Nc1cc(OC)c(Cl)cc1OC do in these assays?
A1 inh: -0.3; Vif A3G: inconclusive; RanGTP-Imp inh: 3.2; Calb FLC: 22; T cruzi repl: -10; LANA-H2A inh: 0.4; Beta apoptosis: -7

How did CC(C)(C)c1ccc(OCc2ccc(C(=O)N/N=C/c3ccc(O)c(O)c3)cc2)cc1 do in these assays?
A1 inh: 0.3; Vif A3G: 15%; RanGTP-Imp inh: 1.4; Calb FLC: 63*; T cruzi repl: 47; LANA-H2A inh: -5.1; Beta apoptosis: 95*; MLL AF4-AF9 inh: 0.6

How did c1ccc(N2CCN(c3ccc4nncn4n3)CC2)nc1 do in these assays?
A1 inh: -0.3; Vif A3G: 70%; RanGTP-Imp inh: inconclusive; Calb FLC: 4; T cruzi repl: -3; LANA-H2A inh: 2.7; Beta apoptosis: 0; MLL AF4-AF9 inh: -2.8

How did O=C(C1=C[C@H](c2ccc(C(F)(F)F)cc2)C[C@H](OCCCCO)O1)N1CCN(Cc2ccc3c(c2)OCO3)CC1 do in these assays?
A1 inh: 0.0; Vif A3G: 5%; RanGTP-Imp inh: 5.8; Calb FLC: -7; T cruzi repl: 35; LANA-H2A inh: 2.1; Beta apoptosis: 5; MLL AF4-AF9 inh: 1.3&4.4

How did COc1ccc(N(CC(=O)Nc2cc(OC)ccc2OC)S(=O)(=O)c2c(C)noc2C)cc1 do in these assays?
A1 inh: 0.9; RanGTP-Imp inh: -0.4; Calb FLC: 35; T cruzi repl: 12; LANA-H2A inh: 0.5; Beta apoptosis: 3; MLL AF4-AF9 inh: 2.0

Results for CCOC(=O)c1sc(=NC(=O)c2ccc(OC(C)C)cc2)n(C)c1C ?
A1 inh: 0.0; Vif A3G: -4%; RanGTP-Imp inh: 1.2; Calb FLC: 3; T cruzi repl: -6; LANA-H2A inh: -4.0; Beta apoptosis: 0; MLL AF4-AF9 inh: 0.6

Results for COc1ccc(/C=C/C(=O)c2ccccc2O)cc1CN1CCOCC1 ?
A1 inh: 1.5; Vif A3G: inconclusive; RanGTP-Imp inh: -1.1; Calb FLC: 0; T cruzi repl: 9; LANA-H2A inh: 1.5

How did S=C(NCCc1ccccc1)Nc1cccc2cnccc12 do in these assays?
A1 inh: 0.4; Vif A3G: 3%; RanGTP-Imp inh: 8.1; Calb FLC: -2; T cruzi repl: -8; LANA-H2A inh: 0.0; Beta apoptosis: 4; MLL AF4-AF9 inh: 2.3

Results for C/C(=N\NC(=O)CSc1nc(C)cc(C)n1)c1cccs1 ?
A1 inh: 0.1; RanGTP-Imp inh: inconclusive; Calb FLC: -11; T cruzi repl: 2; LANA-H2A inh: 25*; Beta apoptosis: -7; MLL AF4-AF9 inh: -0.3

Results for COc1cccc(N2C(=NC(=O)COc3ccccc3)SC3CS(=O)(=O)CC32)c1 (stereo not drawn) ?
A1 inh: 0.3; RanGTP-Imp inh: 2.2; Calb FLC: 31; T cruzi repl: -5; LANA-H2A inh: -2.4; Beta apoptosis: -7; MLL AF4-AF9 inh: -13

What do the screens show for `Cc1c(CBr)[n+](=O)c2c(n1[O-])C(Br)CCC2Br` (stereo not drawn)?
A1 inh: 1.0; Vif A3G: 30%; RanGTP-Imp inh: 0.8; Calb FLC: 0; T cruzi repl: -20; LANA-H2A inh: 3.4; Beta apoptosis: -4; MLL AF4-AF9 inh: 0.7

What do the screens show for `CC(C)C[C@H](NC(=O)N1CCn2c1nc1ccccc12)C(=O)NCc1ccco1`?
A1 inh: 0.6; RanGTP-Imp inh: 1.5; Calb FLC: -10; T cruzi repl: 5; LANA-H2A inh: 3.2; Beta apoptosis: -1; MLL AF4-AF9 inh: 4.5

How did COc1ccc(OC)c2nc(-c3ccncc3)ccc12 do in these assays?
A1 inh: 0.1; Vif A3G: -1%; RanGTP-Imp inh: -1.1; Calb FLC: 26; T cruzi repl: 16; LANA-H2A inh: -1.8; Beta apoptosis: -4; MLL AF4-AF9 inh: 0.0

How did CCOC(=O)C1CCCN(Cc2cc(=O)oc3cc(C)c(C)cc23)C1 (stereo not drawn) do in these assays?
A1 inh: 0.1; Vif A3G: 19%; RanGTP-Imp inh: 2.3; Calb FLC: 8; T cruzi repl: -7; LANA-H2A inh: -2.0; Beta apoptosis: 3; MLL AF4-AF9 inh: -1.1

Results for O=C(NCCS(=O)(=O)N1CCC2(CC1)OCCO2)c1ccc(F)cc1 ?
A1 inh: 0.0; Vif A3G: 4%; RanGTP-Imp inh: -1.7; Calb FLC: -6; T cruzi repl: -7; LANA-H2A inh: -3.4; Beta apoptosis: -2; MLL AF4-AF9 inh: -1.9

How did Cc1ccc(N/C(N)=N/c2nc3c(c(=O)[nH]2)CCCC3)c(C)c1 do in these assays?
A1 inh: -0.2; Vif A3G: -5%; RanGTP-Imp inh: 6.5; Calb FLC: -16; T cruzi repl: -17; LANA-H2A inh: 9.0

How did S=C1NC2(CCCC2)Nc2ccccc21 do in these assays?
A1 inh: 0.6; Vif A3G: 6%; RanGTP-Imp inh: 7.5; Calb FLC: -6; T cruzi repl: -28; LANA-H2A inh: -0.5; Beta apoptosis: -7; MLL AF4-AF9 inh: 1.9

Results for Cc1ccc(/C=N/NC(=O)CSc2nc3ccccc3c(=O)n2-c2ccccc2)s1 ?
A1 inh: 0.1; Vif A3G: -10%; RanGTP-Imp inh: -4.5; Calb FLC: 12; T cruzi repl: 7; LANA-H2A inh: -0.1; Beta apoptosis: -1; MLL AF4-AF9 inh: -0.2
